Source: PubChem
Env fusion inh – HIV envelope-mediated fusion inhibition | inhibition, % at 12.3 µM | HeLa-JRFL Env/CEM21 cell fusion, luciferase | AID 651610 | hit rate 1.1% among 360,000;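 active = mean replicate inhibition score of at least 50 and every replicate individually at or above 50; inconclusive = only one of the two criteria met; inactive = mean below 50 and not all replicates reaching 50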;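 note: 0% = plate neutral controls and 100% = maraviroc near 300 nM; one replicate is shown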
Yeast UUG start – modulators of start codon recognition fidelity in yeast. S. cerevisiae UUG-firefly luciferase reporter, luminescence/redox ratio. activity score, % at 18.7 µM. hit rate 0.13% among 350,000;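 active = replicate mean at a twofold rise or more, about +100% in these data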;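 note: firefly luciferase made from a UUG start codon reports start codon fidelity; reporter light over untreated wells divided by growth signal over untreated wells; some hits fall short of that in this replicate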
PABP FP inh – blocks human PABP binding to poly(A) RNA; fluorescence polarization; P11940; AID 2014; hit rate 1% among 290,000; inhibition, % at 35 µM;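 active = 50% or more with normal probe brightness, or confirmed in later tests; inconclusive = above 50% with abnormal brightness, or retests that disagree; inactive = below 50% or failed in later tests; about a fifth of its hits are not listed in these tables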;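 note: calls also rest on retests at 20 µM and on dose response follow-up; controls were probe without protein and protein plus probe with vehicle; some compounds called inactive have numbers as strong as hits; many hits fall short of the cut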
Target sequence (P11940 whole entry, looked up): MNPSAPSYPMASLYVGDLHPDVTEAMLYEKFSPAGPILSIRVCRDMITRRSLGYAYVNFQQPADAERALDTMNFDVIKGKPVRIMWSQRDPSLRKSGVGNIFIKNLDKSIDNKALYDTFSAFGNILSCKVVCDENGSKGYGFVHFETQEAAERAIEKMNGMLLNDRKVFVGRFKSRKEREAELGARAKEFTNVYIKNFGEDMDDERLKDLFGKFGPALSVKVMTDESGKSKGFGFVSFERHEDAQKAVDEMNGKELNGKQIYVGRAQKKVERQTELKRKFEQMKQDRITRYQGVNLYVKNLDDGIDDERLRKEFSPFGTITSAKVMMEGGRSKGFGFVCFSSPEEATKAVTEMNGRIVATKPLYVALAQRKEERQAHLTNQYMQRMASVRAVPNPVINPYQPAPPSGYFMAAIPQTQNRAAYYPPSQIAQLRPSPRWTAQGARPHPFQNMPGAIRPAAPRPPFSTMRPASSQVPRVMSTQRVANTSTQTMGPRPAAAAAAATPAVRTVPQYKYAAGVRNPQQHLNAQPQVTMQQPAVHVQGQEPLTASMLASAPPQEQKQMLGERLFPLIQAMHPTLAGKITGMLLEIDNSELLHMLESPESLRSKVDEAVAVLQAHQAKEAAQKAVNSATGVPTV
CSC inhib – blocks cancer stem cells. cancer stem cell-like cells viability, luminescence. inhibition, % at 7.5 µM. hit rate 1.1% among 300,000. AID 2717;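 active = mean at 75% or more and at least half the replicates too; inconclusive = mean and replicates disagree; tested in HMLE shEcad cells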;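 note: 0% = median of negative and 100% = median of positive control wells; the first replicate is given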
eIF4H inh – inhibitors of RNA binding by human eIF4H; AID 2012; Q15056; hit rate 0.94% among 290,000; eIF4H fluorescence polarization binding assay; inhibition, % at 35 µM;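 active = 50% or more with normal probe brightness, or confirmed in later tests; inconclusive = above 50% with abnormal brightness, or retests that disagree; inactive = below 50% or failed in later tests; about a fifth of its hits are not listed in these tables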;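 note: calls also rest on retests at 20 µM and on dose response follow-up; 0% = protein and probe with vehicle and 100% = probe without protein; strong numbers were not always called active; many hits fall short of the cut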
MT1-MMP act inh – blocks activation of human MT1-MMP; HT1080 RFP-PRO-GFP cells, GFP/RFP ratio fluorescence, overnight; percent of plate control window, DMSO zero; GFP/RFP ratio change, % at 20 µM; hit rate 0.061% among 360,000; AID 651647;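 active = GFP/RFP ratio change of at least 30% with cell ATP level not reduced by more than half and red fluorescence within 50% of control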; note: strong numbers were not always called active
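Material: RFP-PRO-GFP reporter HT1080 cells. Dosing: single-point 20 µM compound, 1% DMSO. Controls: DMSO and RFP-L50D-GFP cell wells. Timing: cells overnight before dosing, compound overnight, 37 °C, 5% CO2. Measure: GFP/RFP fluorescence ratio.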
Rce1 inh – blocks yeast Ras-converting enzyme; Q03530; calls only; hit rate 0.27% among 290,000; yeast membranes, quenched prenylated peptide cleavage fluorescence;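 active = fall in fluorescence gain of 50% or more versus controls, with final raw signal at or below 3038400; inconclusive = same 50% fall but final raw signal above 3038400; inactive = fall in fluorescence gain under 50%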;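 note: plate controls were neutral control wells for no effect and wells lacking membranes for full effect; tested at 10 µM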
Target sequence (Q03530 whole entry, looked up): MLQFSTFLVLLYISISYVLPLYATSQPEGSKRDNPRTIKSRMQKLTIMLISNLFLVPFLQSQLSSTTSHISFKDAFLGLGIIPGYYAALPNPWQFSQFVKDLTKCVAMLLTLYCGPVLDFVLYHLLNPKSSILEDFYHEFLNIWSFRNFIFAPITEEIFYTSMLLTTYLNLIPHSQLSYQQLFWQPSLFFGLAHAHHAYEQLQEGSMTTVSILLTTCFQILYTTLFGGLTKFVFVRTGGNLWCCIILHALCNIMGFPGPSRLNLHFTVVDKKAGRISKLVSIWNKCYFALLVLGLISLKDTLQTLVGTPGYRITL
eIF4H inh retest – also measured in eIF4H inh; calls as there; inhibition, %; compound at 20 µM; confirmation average;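 mean of two retest wells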
PABP FP inh retest – further read-out of PABP FP inh, marked with its call; inhibition, %; compound at 20 µM; confirmation repeats;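 mean of two retest wells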
MT1-MMP act inh RFP – second read-out of MT1-MMP act inh, no call of its own (marks repeat the call); RFP signal change, %; measured here: RFP expression control read;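 0 = vehicle wells; hits needed this value within 50% of zero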
Starred values were filed as active, the others as inactive; i = inactive; u = inconclusive; x = not tested or not shown; + = active, no number.

SMILES	Env fusion inh	Yeast UUG start	PABP FP inh	CSC inhib	eIF4H inh	MT1-MMP act inh	MT1-MMP act inh RFP	Rce1 inh	others
CC(C)(C)c1nc2ccccc2c(=O)n1N1C(=O)c2ccccc2C1=O	-33	-5	-6	33	2	-3	-3	x
Cc1cc(CNC(=O)Cn2cc([N+](=O)[O-])cn2)c2ccccc2n1	4	-23	-13	3	-10	-4	-1	i
O=C(c1ccc(Cl)cc1)c1c[nH]c(C(=O)NNc2ccccc2)c1	-2	x	31	95*	-2	3	-3	i
CC1(C(=O)NC2CCCCC2)CCC(=O)N1Cc1cccs1 (stereo unspecified)	-5	-1	-15	-14	7	0	3	i
CC1(C)Oc2ccc(C(=O)N3CCOCC3)cc2N(CC(=O)N2CCOCC2)C1=O	x	-13	-9	-2	-8	-2	2	i
Cc1cc(C)c(C)c(S(=O)(=O)N2CCC(C(=O)NCC(c3ccccc3)N(C)C)CC2)c1C (stereo unspecified)	-11	-11	2	20	5	5	4	i
O=C(NCc1ccco1)c1ccc(S(=O)(=O)N2CCCCC2)cc1	6	x	-9	18	-7	-2	-3	i
CC(Sc1nnc2c(n1)[nH]c1ccccc12)C(=O)N(C)C1CCCCC1 (stereo unspecified)	14	-28	12	10	-3	3	-26	i
CC(CNC(=O)CCCn1ncn2c(cc3occc32)c1=O)c1ccccc1 (stereo unspecified)	-4	-4	2	-7	-11	2	0	i
COCCN1CCN(C(=O)C2CCC(=O)N(CCc3ccc(Cl)cc3)C2)CC1 (stereo unspecified)	-15	-5	10	-7	17	0	3	i
CCn1c(SCC(=O)N2c3ccccc3Sc3ccccc32)nc2c1c(=O)n(C)c(=O)n2C	10	-11	13	-2	-5	-7	3	i
COc1ccc(CNC(=S)Nc2cccc(Cl)c2)cc1	-9	-27	x	-1	x	0	1	i
CCCN1C(=O)/C(=C/c2c(NCCCOCC)nc3c(C)cccn3c2=O)SC1=S	-19	-10	u	x	u	-176	13	x
O=C(N1CCOCC1)N(CCN1CCOCC1)Cc1cccc(Cl)c1	x	-9	-13	13	3	-5	3	i
Cc1cccc(Nc2ncnc3nc[nH]c23)c1C	1	-12	-6	-3	2	-4	5	i
Cc1ccc(C(=O)N/C(=C/c2ccc(-c3cccc([N+](=O)[O-])c3)o2)C(=O)NC(C)C)cc1	x	x	-10	7	-8	1	-1	i
O=C(Cc1cccs1)Nc1cccc(-c2nc3cc4ccccc4cc3[nH]2)c1	i	x	0	99*	6	13	-15	i
CCOC(=O)C1CCN(C(=O)CS(=O)Cc2nc(-c3ccc(C)cc3)oc2C)CC1 (stereo unspecified)	13	3	2	x	-2	4	-1	i
S=C1Nc2cc(Cl)ccc2Sc2ccccc21	7	-14	4	-14	1	1	0	i
CC(CCc1ccccc1)NC(=O)C(=O)c1c[nH]c2ccccc12 (stereo unspecified)	-1	-9	-1	-12	-6	-3	3	i
COCCN(C(=S)Nc1ccccc1C)C(C)c1cccs1 (stereo unspecified)	-4	-12	-2	-13	-6	0	6	i
O=C(COC(=O)CNC(=O)c1ccc2c(c1)OCO2)Nc1ncc(Cl)cc1Cl	10	x	-8	-7	-3	1	5	i
CC(=O)[C@H]1CC[C@H]2[C@@H]3CC=C4C[C@@H](O)CC[C@]4(C)[C@H]3CC[C@]12C	x	-12	x	-7	x	-3	-5	x
Cc1ccc(CNC(=O)CCS(=O)(=O)c2ccc(C)cc2)cc1	-13	-2	5	-1	-9	-5	1	i

Already shown: 17 of the compounds above.
SMILES	Env fusion inh	Yeast UUG start	PABP FP inh	CSC inhib	eIF4H inh	MT1-MMP act inh	MT1-MMP act inh RFP	Rce1 inh	others
CC(Sc1nnc2c(n1)[nH]c1ccccc12)C(=O)N(C)C1CCCCC1 (stereo unspecified)	14	-28	12	10	-3	3	-26	i
CC(CNC(=O)CCCn1ncn2c(cc3occc32)c1=O)c1ccccc1 (stereo unspecified)	-4	-4	2	-7	-11	2	0	i
COCCN1CCN(C(=O)C2CCC(=O)N(CCc3ccc(Cl)cc3)C2)CC1 (stereo unspecified)	-15	-5	10	-7	17	0	3	i
CCn1c(SCC(=O)N2c3ccccc3Sc3ccccc32)nc2c1c(=O)n(C)c(=O)n2C	10	-11	13	-2	-5	-7	3	i
COc1ccc(CNC(=S)Nc2cccc(Cl)c2)cc1	-9	-27	x	-1	x	0	1	i
CCCN1C(=O)/C(=C/c2c(NCCCOCC)nc3c(C)cccn3c2=O)SC1=S	-19	-10	u	x	u	-176	13	x
O=C(N1CCOCC1)N(CCN1CCOCC1)Cc1cccc(Cl)c1	x	-9	-13	13	3	-5	3	i
Cc1cccc(Nc2ncnc3nc[nH]c23)c1C	1	-12	-6	-3	2	-4	5	i
Cc1ccc(C(=O)N/C(=C/c2ccc(-c3cccc([N+](=O)[O-])c3)o2)C(=O)NC(C)C)cc1	x	x	-10	7	-8	1	-1	i
O=C(Cc1cccs1)Nc1cccc(-c2nc3cc4ccccc4cc3[nH]2)c1	i	x	0	99*	6	13	-15	i
CCOC(=O)C1CCN(C(=O)CS(=O)Cc2nc(-c3ccc(C)cc3)oc2C)CC1 (stereo unspecified)	13	3	2	x	-2	4	-1	i
S=C1Nc2cc(Cl)ccc2Sc2ccccc21	7	-14	4	-14	1	1	0	i
CC(CCc1ccccc1)NC(=O)C(=O)c1c[nH]c2ccccc12 (stereo unspecified)	-1	-9	-1	-12	-6	-3	3	i
COCCN(C(=S)Nc1ccccc1C)C(C)c1cccs1 (stereo unspecified)	-4	-12	-2	-13	-6	0	6	i
O=C(COC(=O)CNC(=O)c1ccc2c(c1)OCO2)Nc1ncc(Cl)cc1Cl	10	x	-8	-7	-3	1	5	i
CC(=O)[C@H]1CC[C@H]2[C@@H]3CC=C4C[C@@H](O)CC[C@]4(C)[C@H]3CC[C@]12C	x	-12	x	-7	x	-3	-5	x
Cc1ccc(CNC(=O)CCS(=O)(=O)c2ccc(C)cc2)cc1	-13	-2	5	-1	-9	-5	1	i

(next part)
SMILES	Env fusion inh	Yeast UUG start	PABP FP inh	CSC inhib	eIF4H inh	MT1-MMP act inh	MT1-MMP act inh RFP	Rce1 inh	others
O=C(CSc1ccc(-c2ccccc2)nn1)N1CCOCC1	x	-19	-2	7	3	5	6	i
CCNS(=O)(=O)c1ccc(NC(=O)c2ccccc2SCCOC)cc1	-1	-6	0	6	-13	2	2	i
CCOC(=O)c1ccc(NC(=O)c2cccc(S(=O)(=O)N3c4ccccc4CC3C)c2)s1 (stereo unspecified)	17	-20	-9	47	1	-27	-30	i
O=c1cc(-c2ccccc2)c2ccc(O)c(CN3CCCCC3)c2o1	-12	0	-10	-13	-5	-12	-6	i
O=C(CSc1nnc(-c2cccs2)o1)N1CCCc2ccccc21	x	-11	6	-1	8	-1	0	i
Cc1c(Cl)cnc(NC(=O)COC(=O)c2nn(C)c(=O)c3ccccc23)c1Cl	9	x	-22	x	19	1	5	i
CCN(CC)C(=O)CSc1nc2ccccc2c(=O)n1OC	x	-2	-1	7	-6	2	5	i
COCCn1c(SCC(=O)Nc2ccc(F)cc2)nc2c(oc3ccccc32)c1=O	12	x	0	0	-3	0	1	i
COc1ccc2nc(SCC(=O)N3CC(=O)Nc4ccccc43)c(C#N)cc2c1	x	7	18	22	28	-112	-12	i
COc1ccc(-c2nnc(NC(=O)CS(=O)(=O)c3ccc(Cl)cc3)o2)c(OC)c1	-7	-20	x	-2	x	2	5	i
CC1=NN(c2ccccc2)C(=O)/C1=C\c1ccc(Br)s1	-78	x	107	17	-7	3	4	+	eIF4H inh retest=-10;PABP FP inh retest=0
CCOc1ccc(NC(=O)CSc2nc(=O)n(CCN3CCOCC3)c3c2CCCC3)cc1	-4	6	x	-9	x	-3	-1	i
Cc1cc(-c2ccccc2)nc2[n+]1CCN2C	18	-5	0	-8	4	5	-1	i
Cc1ccc(S(=O)(=O)CCC(=O)OCn2nnc3ccccc3c2=O)cc1	-1	1	3	-2	-12	1	1	i
COCc1ccc(CN2CCCC(CO)(Cc3ccccc3C)C2)o1 (stereo unspecified)	5	x	5	5	-6	1	-1	i
O=C(CSc1nc2ccccc2o1)Nc1ccc(N2CCOCC2)cc1	-24	-28	-2	4	5	8	5	i
O=[N+]([O-])c1ccc(COc2cccc(CN3CCOCC3)c2)cc1	8	-11	x	x	x	-2	-5	x
COc1ccccc1C1CCN(Cc2cccc([N+](=O)[O-])c2)CC1	-15	x	3	26	-4	0	1	i
CN1CCN(C(=S)SCc2nc(N)nc(Nc3ccc(F)cc3)n2)CC1	-1	-11	-4	6	3	3	2	i
Cc1cccnc1N1C(=O)c2ccc(C(=O)O)cc2C1=O	-5	-6	-2	-2	-4	-1	1	i
O=C1NC(=O)/C(=C/c2ccccn2)S1	-9	-8	10	-24	13	1	-4	i
COc1ccc(NC(=O)COC(=O)c2ccc(Cl)c(S(N)(=O)=O)c2)c([N+](=O)[O-])c1	-1	x	7	4	-4	2	-6	i
Clc1ccc2[nH]c3c(N4CCC5(CC4)OCCO5)ncnc3c2c1	x	x	-6	54	10	x	x	i
CCCn1nc(C(=O)NCc2ccccn2)c2ccccc2c1=O	19	-13	-3	-3	2	-2	-11	i
Cc1nc2ccccc2n1CCc1ccccc1	-21	-23	0	-15	-7	-1	-2	i
CC(=O)c1ccc(NC(=O)C2CCCN(c3ncnc4c3nc3n4CCCCC3)C2)cc1 (stereo unspecified)	0	6	-1	x	2	0	-6	i
O=C1[C@@H]2Cc3c([nH]c4ccccc34)C(c3cccc([N+](=O)[O-])c3)N2C(=O)CN1C1CCN(Cc2ccccc2)CC1 (stereo partly specified)	35	-6	2	55	-4	-4	-15	i
COC(=O)c1ccccc1OCCCOc1ccc(C=O)cc1OC	x	2	-2	-14	-6	1	2	i
COc1ccc(OC)c(C2C(C#N)=C(N)Oc3cc(C)n(Cc4ccccn4)c(=O)c32)c1 (stereo unspecified)	-69	-5	0	-16	2	6	4	i
CCOC(=O)CC1(NC(=O)c2cc(COc3cncc(Cl)c3)on2)CCCCC1	53	-6	-7	-5	-10	-7	-25	x

Ordered by SMILES length (ascending): some entries from above
SMILES	Env fusion inh	Yeast UUG start	PABP FP inh	CSC inhib	eIF4H inh	MT1-MMP act inh	MT1-MMP act inh RFP	Rce1 inh	others
Cc1nc2ccccc2n1CCc1ccccc1	-21	-23	0	-15	-7	-1	-2	i
CC(CNC(=O)CCCn1ncn2c(cc3occc32)c1=O)c1ccccc1 (stereo unspecified)	-4	-4	2	-7	-11	2	0	i
CC1(C)Oc2ccc(C(=O)N3CCOCC3)cc2N(CC(=O)N2CCOCC2)C1=O	x	-13	-9	-2	-8	-2	2	i
